# HSD17B inhib: blocks hydroxysteroid 17-beta dehydrogenase activity; Q99714; recombinant HSD17B10, NADH fluorescence kinetic; many of its hits are not listed in these tables; Potency, µM (highest dose often 57.1 µM), without a hit: at the top dose activity change, negative = inhibition, most hits filed as inhibitors; 75,000 tested, 7.6% active; AID 893; active = well fitted inhibition curve with a large enough effect; inconclusive = small, poorly fitted or top-dose-only effect; inactive = no such curve, though single readings can be large or run the other way;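 also: the protocol describes HADH2 (HSD17B10) and not the HSD17B4 of the title; nearly all actives have a fitted effect of over 70% in size; most hits overshoot -100% by far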
#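 His-tagged E. coli-expressed HADH2 at 20 nM in 100 mM Tris-HCl pH 9.0 with 0.01 % Tween-20, preincubated 15 min with compound at room temperature. Reaction with 1 mM NAD+ and 90 uM beta-hydroxybutyryl coenzyme A; NADH fluorescence (360/450 nm) read kinetically over 4 min, last minus first point.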
# Numbers without * were called inactive; ? = inconclusive; ! = repeats disagree; [ ] = another dose, or the depositor's remark. % is scaled to controls: 0 for no effect and ±100 for the full control effect; potency is read from the fitted curve at half-maximal effect. These rows are one share of the data; count on the stated rates, not on these rows.
SMILES	HSD17B inhib
COc1ccccc1-c1cc(C(=O)Nc2c(C)n(C)n(-c3ccccc3)c2=O)no1	-11%
COc1ccc(NC(=O)CSc2nnc(Cc3cccn3C)n2CCc2ccccc2)cc1OC	-1%
COc1ccc(N(C)S(=O)(=O)c2ccc3c(c2)oc(=O)n3C)cc1	3%
CCOC(=O)C1CCN(C(c2cc3ccc(C)cc3[nH]c2=O)c2nnnn2C2CCCCC2)CC1 (stereo not drawn)	-3%
CCCC1=C(C(=O)OCC)C(c2ccccc2OCC)NC(=O)N1C (stereo not drawn)	-2%
O=C(Oc1ccccc1C(=O)Oc1ccccc1)c1ccco1	102%[activator]
CC1CN(CCC(=O)Nc2ccc3c(c2)OCO3)CC(C)O1 (stereo not drawn)	-20%
Cc1ccc2c(Cl)cc(Cl)c(OCc3c(C)noc3C)c2n1	16%
O=C(CCCn1c(=O)[nH]c2cc(Cl)ccc2c1=O)NCCN1CCN(c2ccccc2)CC1	4%
CC1=C(C(=O)N2CCc3ccccc32)C2(CCC(C)CC2)OC1=O (stereo not drawn)	4%
Cc1ccc(S(=O)(=O)N[C@H](CN)C(=O)O)cc1	6%[11.4 µM]
CCc1nnc(NC(=O)NCN2C(=O)C3C4C=CC(C4)C3C2=O)s1 (stereo not drawn)	14%
CS(=O)(=O)N1CCN(C(=O)c2c(F)cccc2F)CC1	15%
Clc1ccc2nc(CSc3nnc(-c4c[nH]c5ccccc45)o3)cn2c1	-2%
NC(=O)NCC12CC3CC(CC(C3)C1)C2	6%
Cc1ccc(NC2=NCC(=O)N2Cc2ccc3c(c2)OCO3)cc1	-8%
CC(=O)Nc1ccc(S(=O)(=O)N2CCN(c3nc(NC4CCCC4)c4ccccc4n3)CC2)cc1	16µM*
c1ccc(-n2c(SCC3CCCCO3)nnc2-c2cccs2)cc1 (stereo not drawn)	?
N=C1C=CC(=C(c2ccc(N)cc2)c2ccc(N)cc2)C=C1	25µM*!
COC(=O)c1sc(S(=O)(=O)N2CCCCC2)c(C(=O)OC)c1C	-4%
Cc1cc(-c2ccccc2)nn1-c1nc2c(c(=O)[nH]c(=O)n2C)n1C	25µM*
CCn1c(SCC(=O)Nc2nc3ccc(OC)cc3s2)nnc1-c1ccoc1C	-3%
O=C(NCCCN1CCOCC1)c1ccc(CS(=O)(=O)c2ccc(Br)cc2)o1	5%
COC(=O)N1CCC[C@@]2(CCN(c3ccccn3)C2)C1	32µM*
CC(C)N(CC(=O)O)CC(=O)O	8%[11.4 µM]
CCCCCCOc1cccc(N)c1	0%
CCCN(CCC)c1ncnc2nc[nH]c12	7%
CCOc1ccccc1N1CCN(Cc2cccc(OC)c2OC)CC1	-5%
Cc1ccc(S(=O)(=O)NC(=O)OC23COCN2COC3)cc1	7%[11.4 µM]
COc1cc(-c2cc(C(=O)N3CCN(c4ccccn4)CC3)c3ccccc3n2)cc(OC)c1OC	?

# Compounds shown so far that have two or more sulfur atoms:
SMILES	HSD17B inhib
c1ccc(-n2c(SCC3CCCCO3)nnc2-c2cccs2)cc1 (stereo not drawn)	?
COC(=O)c1sc(S(=O)(=O)N2CCCCC2)c(C(=O)OC)c1C	-4%
CCn1c(SCC(=O)Nc2nc3ccc(OC)cc3s2)nnc1-c1ccoc1C	-3%

# Continuation:
SMILES	HSD17B inhib
CCOC(=O)Cc1nn(CCc2ccccn2)c(=O)c2ccccc12	4%
CCOC(=O)c1cc2sccc2n1CC(=O)N1CCCC1	-2%
N#Cc1nc(COc2ccc(F)cc2)oc1NCCCn1ccnc1	4%
O=C(Nc1ccc(N2CCOCC2)c(Cl)c1)c1ccc(Br)o1	3%
Cc1cc2sc(C)[n+](CCCOS(=O)(=O)O)c2cc1C	-2%[11.4 µM]
CCOC(=O)c1nnn(-c2nonc2N)c1CN(C)Cc1ccccc1	-1%
CN(CC(=O)NC1CCCCCC1)S(=O)(=O)c1ccccc1	4%
CC(C)Cn1c(CCC(=O)O)ccc1-c1cccs1	32µM*
CCCc1nc2sc3ccccc3c(=O)c2c(=O)n1Cc1ccco1	-26%
CC(=O)c1ccc(S(=O)(=O)NCCCC(=O)NCCc2ccccn2)cc1	4%
COc1ccc(CNc2nc(-c3ccc(N(C)C)cc3)nc3ccccc23)c(OC)c1	3.2µM*
Nc1c(S(=O)(=O)c2ccccc2)c2nc3ccccc3nc2n1/N=C/c1cccc(O)c1	25µM*
Nc1nc(CN2CCN(c3ccccn3)CC2)nc(Nc2ccc(Cl)cc2)n1	-9%
Cc1ccc(-c2nnc(N3CCN(C(=O)CSc4ncn[nH]4)CC3)c3ccccc23)cc1	6%
COc1ccccc1NC(=O)CS(=O)(=O)c1cccc2nsnc12	-7%
O=C(Nc1ccncc1)c1cc([N+](=O)[O-])ccc1Cl	-5%
Cc1cccc(CNc2ccnc(-c3ccc(C(=O)N(C)C)cc3)n2)c1	1%
Cc1ccc(S(=O)(=O)N2Cc3ccccc3CC2C(=O)Nn2cnnc2)cc1 (stereo not drawn)	-1%
Cc1cnc(NC(=O)CSc2nnc(-c3ccccc3)o2)s1	-4%
COC(=O)c1oc2ccccc2c1NC(=O)CN1CCCC1	-12%
COc1ccc(Nc2cc(C(=O)NCCCN3CCN(C)CC3)c3ccccc3n2)cc1	-14%
c1ccc(COn2nnc3ccccc32)c(COn2nnc3ccccc32)c1	3%
Cc1cccc(Nc2nc(N)nc(CN3CCC(C(N)=O)CC3)n2)c1C	11%
COc1ccccc1-c1nnc(SCC(=O)Nc2c(Cl)cccc2Cl)o1	-8%
COc1cccc(C(c2nnnn2CCc2ccccc2)N2CCN(c3ccccc3)CC2)c1OC (stereo not drawn)	5%
Cc1cccc(OCC(=O)Nc2ccc3c(c2)OCO3)c1C	-9%
COc1ccc2cc3cc(C(=O)Nc4ccccc4N4CCN(C)CC4)oc3nc2c1	-1%
CCN(CC)CCNC(=O)C1c2cc(OC)c(OC)cc2C(=O)N2CCc3ccccc3C12 (stereo not drawn)	-4%
O=C(NC1CC2CCC1C2)c1ccc(CN2CCOCC2)cc1 (stereo not drawn)	1%
CCOC(=O)c1cc(NC(=O)NCc2ccco2)c(C)nc1C	5%

# Filtered by structure: those above with a Cl atom.
SMILES	HSD17B inhib
Cc1ccc2c(Cl)cc(Cl)c(OCc3c(C)noc3C)c2n1	16%
O=C(CCCn1c(=O)[nH]c2cc(Cl)ccc2c1=O)NCCN1CCN(c2ccccc2)CC1	4%
Clc1ccc2nc(CSc3nnc(-c4c[nH]c5ccccc45)o3)cn2c1	-2%
O=C(Nc1ccc(N2CCOCC2)c(Cl)c1)c1ccc(Br)o1	3%
Nc1nc(CN2CCN(c3ccccn3)CC2)nc(Nc2ccc(Cl)cc2)n1	-9%
O=C(Nc1ccncc1)c1cc([N+](=O)[O-])ccc1Cl	-5%
COc1ccccc1-c1nnc(SCC(=O)Nc2c(Cl)cccc2Cl)o1	-8%

# Further entries
SMILES	HSD17B inhib
COc1cc(C(C#N)N2CCOCC2)ccc1O (stereo not drawn)	-8%
Cc1cc2c(N3CCCCC3C)ncnc2s1 (stereo not drawn)	0%
CC1CCCCN1S(=O)(=O)c1ccc(NC(=O)c2cccc(-n3cnnn3)c2)cc1 (stereo not drawn)	?
COc1ccc(NC(=O)C2CCCN(c3c4c(nc5ncnn35)CCC4)C2)cc1 (stereo not drawn)	7%
COc1cccc(-c2nn(-c3ccccc3)cc2CO)c1	?
c1ccc(CCc2cccnc2)nc1	7%[11.4 µM]
CC1(C)CC(=O)C=C(Nc2ccc(C(=O)O)cc2)C1	-14%
CSc1nnc2c(n1)OC(C)N(C(=O)c1ccccc1)c1ccccc1-2 (stereo not drawn)	-8%
CN1CCN(CCc2nc3cc(NC(=O)COc4ccccc4)ccc3n2C)CC1	7%
Cc1nonc1NC(=O)CSc1nc(C2CCCCC2)nc2ccccc12	6%
COc1ccc(-c2nnc(SCC(=O)Nc3ccc(C)cc3)n2C)cc1	2%
CC(=O)N1CCN2C(=O)C1CCCC(=O)c1cc(C3CCCCC3)ccc12 (stereo not drawn)	4%
COCCCNC(=O)CSC1=Nc2ccccc2C2=NC(Cc3c[nH]c4ccccc34)C(=O)N12 (stereo not drawn)	6%
Cc1ccc(N=Cc2ccc(O)cc2O)cc1F	2%
NC(=S)NNC(N)=S	-1%
CCOc1ccccc1NC(=O)NC1CCN(CC(=O)Nc2ccc3c(c2)OCCO3)CC1	-4%
CN(CCC(=O)Nc1ccc2c(c1)OCO2)Cc1ccccc1	0%
CC(C)CNC(=O)COc1ccc2c3c(c(=O)oc2c1)CCC3	13µM*
O=C(COC(=O)Cn1cnc2ccccc21)NCCC1=CCCCC1	2%
CCN1CCCC1CNc1ncnc2c1[nH]c1ccc(F)cc12 (stereo not drawn)	32µM*
Cc1ccc(N(CC(O)COCc2ccco2)S(=O)(=O)c2ccc(C)cc2)cc1 (stereo not drawn)	-12%
CC(=O)c1c(C)n([O-])c2ccccc2[n+]1=O	-6%
COc1ccc(Oc2ncc3ncc(=O)n(Cc4ccc(F)cc4)c3n2)cc1	5%
COC(=O)C1(C)Nc2ccccc2C(=O)N1c1ccccc1C (stereo not drawn)	32µM*
CCSCc1nnc(SCC(=O)Nc2nc3ccccc3s2)n1C	7%
CCOC(=O)N1CCN(C(=O)c2ccccc2N(C)S(C)(=O)=O)CC1	9%
CCN(CC)CCCN1C(=O)C(O)=C(C(=O)c2sc(C)nc2C)C1c1ccco1 (stereo not drawn)	1%
CCC(C(=O)Nc1ncccn1)(C(F)(F)F)C(F)(F)F	14%
CC(=O)N(C)C1(c2nnnn2CCOC(=O)Nc2ccc(Cl)cc2)CCCCC1	7%
COc1cccc(Cn2c(=O)c(-c3ccccc3)nc3cnc(OC)nc32)c1	?
CCCn1c(SCC(=O)N2CCCCC2)nnc1-c1ccco1	6%
COc1ccccc1CN1C(=S)SC(C)(C)C1NO (stereo not drawn)	12%
N#Cc1nc(COc2ccc(Cl)cc2)oc1N1CCCC1	-13%
C/C(=N\O)C(=O)NCc1ccncc1	-1%
C=COCCn1c(-c2nonc2N)nc2ccccc21	3%
O=c1c2cnn(-c3ccccc3)c2nc(-c2ccco2)n1-c1ccccc1	-9%
CCSc1nnc(NC(=O)CSc2nc3c(c(=O)n2-c2ccccc2)SCC3)s1	1%
Cc1ccc(N2CCN(C(=O)CNS(=O)(=O)c3ccc(Br)s3)CC2C)cc1 (stereo not drawn)	-5%
CC1(C)Cc2ccccc2-c2nnc(-c3ccccc3)n21	8%
O=C(Oc1ccccc1C(=O)N1CCOCC1)c1ccc(Br)cc1	4%
COc1ccc(OC)c2[nH]c(=O)c(CCNC(=O)c3ccc(S(=O)(=O)N(C)C)cc3)cc12	10%
c1ccc(-n2c(Cc3cn4ccsc4n3)nnc2N2CCOCC2)cc1	9%
CC1CCCCN1C(=O)c1cc(-c2ccc(Cl)c(Cl)c2)on1 (stereo not drawn)	4%
CC(=O)Nc1ccc(S(=O)(=O)Nc2ccc([N+](=O)[O-])cc2)cc1	-4%
CCOc1nonc1C(=N)/C(C(C)=O)=C(\C)O	-4%
CN(c1ccccc1)S(=O)(=O)c1ccc(C(=O)Nc2nnc(-c3ccc(F)cc3)o2)cc1	6%
O=C(Cc1c(O)c2ccccc2[nH]c1=O)NC1CCCCCC1	?
Cc1ccc2nc(NC(=O)C3CCN(S(=O)(=O)c4cccc5nsnc45)CC3)sc2c1	0%
COCCn1c(C(C)C)nc2oc3ccccc3c(=O)c2c1=O	4%
N#Cc1nc(Cc2ccccc2)oc1NCCc1ccccc1	-12%
COc1ccc(NC(C)=O)cc1NC(=O)CCn1c(=O)sc2ccccc21	-6%
Cn1c(=O)c2c(nc(N3CCOCC3)n2CCCNC2=NCCC2)n(C)c1=O	0%
COc1ccc(Oc2ncc3nc(CCc4ccccc4)c(=O)n(CCC#N)c3n2)cc1	-28%
O=C(Cn1cc(C(=S)N2CCOCC2)c2ccccc21)N1CCOCC1	-10%
O=C(Nc1ccc2c(c1)OCCO2)C1CCN(c2nnnn2-c2ccccc2)CC1	3%
O=S(=O)(Cc1ccccc1)NCc1ccccn1	4%
Cc1ccc(S(=O)(=O)C2(C(=O)N3CCCCCC3)CC2)cc1	-6%
NS(=O)(=O)c1ccc(CCNC(=O)c2cccnc2)cc1	7%
COC(=O)c1ccc(Cl)c(NC(=O)CSc2ncn[nH]2)c1	-1%
NC(N)=N[C@H](CCC(=O)O)C(=O)O	7%

# Going on with the list:
SMILES	HSD17B inhib
O=C(CN1CC(c2ccccc2)CC1=O)Nc1ccc2c(c1)OCO2 (stereo not drawn)	-1%
COC(=O)C1=C(C(=O)c2ccccc2)C(c2ccc(O)c(OC)c2)n2nnnc2N1 (stereo not drawn)	-2%
COC(=O)[C@@]1(Cc2ccc(OC)cc2)[C@H]2c3cc(C(=O)N4CCCC4)n(CCc4ccc(OC)c(Br)c4)c3C[C@H]2CN1C(=O)c1ccccc1	21%
O=c1[nH]c(CN2CCN(Cc3ccc4c(c3)OCO4)CC2)nc2ccccc12	7%
Cc1cc(NC(=O)c2cc3ccccc3o2)cc(C)c1OCC(=O)N1CCOCC1	6%
COC(=O)C1CC1C(NC(=O)[C@@H]1CCCN1)c1ccccc1 (stereo partly drawn)	-2%
COc1cccc(C(=O)NC2=NCCS2)c1OC	-10%
